Screens from PubChem.
INS promoter inh – inhibitors of insulin promoter-driven GFP, primary screen, imaging, TRM-6 cells (human fetal islet line), eGFP reporter, cell count. inhibition, % at 2 µM. 130,000 tested, 0.9% active. AID 1273, 2008. reporter expression induced with tamoxifen;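 active = inhibition above the mean plus 3 SD, with well images judged a real hit on visual review, cut at about 60% in these data, passing the limit was not always enough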
PKD1 inh – inhibitors of human PKD1 kinase, biochemical, fluorescence polarization; Serine/threonine-protein kinase D1 (Homo sapiens), Q15139; PKD1 kinase fluorescence polarization assay; inhibition, %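 (about 10 µM by stock and volumes)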; 200,000 tested, 0.056% active; AID 797, 2007;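 active = inhibition of 50% or more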;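 note: controls were vehicle for no effect and a reference inhibitor for full effect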
RGS16-Gao – modulators of RGS16 binding to Galphao, primary screen, biochemical, human proteins, multiplexed bead flow cytometry | Regulator of G-protein signaling 16 (Homo sapiens) + Guanine nucleotide-binding protein … | AID 1441, 2008 | 220,000 tested, 0.38% active | binding response (% of control), % at 10 µM | bead-based flow cytometry RGS16-Galphao binding, fluorescence; actives lie on both sides;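 active = below 25% or above 175%, edge rows of some plates excepted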;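 note: Galphao activated by GDP with aluminum fluoride before binding; 100% = wells without compound and 0% = beads without RGS; some results beyond the cut were filed as inactive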
Target sequence (O15492 whole entry, looked up): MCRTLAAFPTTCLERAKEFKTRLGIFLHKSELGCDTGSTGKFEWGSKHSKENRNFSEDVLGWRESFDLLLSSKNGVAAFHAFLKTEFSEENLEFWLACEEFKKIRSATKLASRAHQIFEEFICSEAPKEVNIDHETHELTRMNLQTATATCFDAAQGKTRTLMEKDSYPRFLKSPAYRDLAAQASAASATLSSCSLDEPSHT
Target sequence (P09471 whole entry, looked up): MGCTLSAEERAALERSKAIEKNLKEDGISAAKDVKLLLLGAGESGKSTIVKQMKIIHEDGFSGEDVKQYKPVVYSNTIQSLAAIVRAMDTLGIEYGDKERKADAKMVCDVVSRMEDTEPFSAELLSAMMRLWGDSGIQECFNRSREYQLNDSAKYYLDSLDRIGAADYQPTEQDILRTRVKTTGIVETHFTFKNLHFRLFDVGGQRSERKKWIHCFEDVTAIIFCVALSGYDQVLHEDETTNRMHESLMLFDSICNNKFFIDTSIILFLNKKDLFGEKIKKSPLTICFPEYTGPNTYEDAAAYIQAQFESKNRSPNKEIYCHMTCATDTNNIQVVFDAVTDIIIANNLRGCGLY
HSV augment – enhancers of HSV replication in host cells, fold increase, host cell viability; 220,000 tested, 0.005% active; maximum fold increase; HSV replication augmentation in cells;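 active = peak rise of 1.5-fold or more in the series; tested in PC3 cells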;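 note: first round at 10 µM; read as green reporter fluorescence; hits show the peak of a series up to 25 µM; 1 = signal of infected wells without compound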
GALR2 agonist – GALR2 receptor agonists, primary screen, cell-based. Galanin receptor type 2 (Homo sapiens), O43603. GALR2-expressing cells, agonist activation read-out. activation, %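 (tested at 5 µM)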. 140,000 tested, 0.48% active. AID 803, 2007;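 active = above mean plus 3 SD of all compounds, about 5% in these data, not always enough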;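 note: 0% = vehicle buffer wells and 100% = reference agonist at full effect; tested in CHO reporter cells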
Target sequence (O43603 whole entry, looked up): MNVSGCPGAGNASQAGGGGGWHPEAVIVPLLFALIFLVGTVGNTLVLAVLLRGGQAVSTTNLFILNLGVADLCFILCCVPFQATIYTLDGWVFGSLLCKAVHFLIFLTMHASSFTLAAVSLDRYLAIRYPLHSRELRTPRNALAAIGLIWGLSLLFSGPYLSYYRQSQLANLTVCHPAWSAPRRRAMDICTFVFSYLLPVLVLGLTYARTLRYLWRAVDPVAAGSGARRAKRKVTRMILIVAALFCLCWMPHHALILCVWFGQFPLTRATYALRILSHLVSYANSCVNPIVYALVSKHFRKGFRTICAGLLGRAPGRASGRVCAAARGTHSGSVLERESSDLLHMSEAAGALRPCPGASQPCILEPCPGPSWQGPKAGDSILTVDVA
INS promoter inh cell count – also measured in INS promoter inh; calls as there; normalized cell count, %; measured here: cell count, toxicity; reference of the scale not given here;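 cells exposed to compound for 48 h; stained nuclei by imaging scaled within each plate; lower means fewer cells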
HSV augment primary fold – also measured in HSV augment; calls as there; fold increase; compound at 10 µM; measured here: primary screen fold increase 10 uM; tested in PC3 cells;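 GFP signal in the first replicate; 1 = infected wells without compound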
The depositor's hits bear a star; i = inactive; . = no result given. The order is random. Share with any hit: about 1.3%.

nr	Compound	INS promoter inh	INS promoter inh cell count	PKD1 inh	RGS16-Gao
1	CCNC(=S)NNC(=O)c1csc2ccccc12	-38	101	-15	104
2	CCOC(=O)N1CCN(C(=O)CSCC(=O)Nc2nc(-c3ccc(Cl)s3)cs2)CC1	33	78	-10	105
3	O=C(CSC1=NCCS1)N1CCN(c2ccc(Cl)cc2)CC1	5	115	-4	110
4	CCOC(=O)c1ccc(NC(=O)C2CCCO2)cc1 (stereo not drawn)	-9	158	-15	99
5	Cn1c(N)c(C(=O)COC(=O)COc2ccccc2C#N)c(=O)n(C)c1=O	.	.	-10	98
6	CCCCN1CNC(=S)N(c2ccc(C(=O)OCC)cc2)C1	.	.	-6	110
7	O=C(Cn1cnc([N+](=O)[O-])c1)Nc1cc(Oc2ccc(Cl)cc2Cl)cc([N+](=O)[O-])c1	-110	98	7	107
8	N#Cc1cnn2c(N)c(-c3ccc(Cl)cc3)cnc12	-9	105	-4	109

nr	HSV augment	HSV augment primary fold	GALR2 agonist
1	i	1	-2.9
2	i	0.93	-1.7
3	i	0.8	-1.5
4	i	0.94	-0.1
5	i	0.99	.
6	i	1.1	0.3
7	i	0.88	-0.6
8	i	0.92	.

nr	Compound	INS promoter inh	INS promoter inh cell count	PKD1 inh	RGS16-Gao
9	CN(C(=O)COC(=O)CNC(=O)c1sc2ccccc2c1Cl)c1ccccc1	-29	62	-1	99
10	CSc1ccc(C#N)cc1NC(=O)c1ccccc1	.	.	-2	104
11	Cn1c(=O)c2c(nc(CN3CCC(C(N)=O)CC3)n2Cc2c(F)cccc2Cl)n(C)c1=O	.	.	-8	108
12	Cc1c(-c2cc[n+]([O-])cc2)oc2ccc(Br)cc2c1=O	.	.	3	101
13	CC1=NNC(=O)/C1=C\c1cn(-c2ccccc2)nc1-c1ccc(Cl)cc1	27	134	-3	88
14	O=C1NC(=NCc2ccccc2)S/C1=C\c1ccccc1	.	.	4	98
15	Cc1cc(Br)cc(C)c1OCCCCN(C)C	-17	160	-4	118
16	COc1ccc(CCNS(=O)(=O)c2ccc(N3CCCC3=O)cc2)cc1	62	144	-8	102

nr	HSV augment	HSV augment primary fold	GALR2 agonist
9	i	0.97	-2.0
10	i	0.92	.
11	i	0.75	0.6
12	i	1.2	.
13	i	0.6	-4.4
14	i	0.89	-1.7
15	i	0.75	-1.6
16	i	0.85	-1.2

4 entries from above, with values under each structure:
The line under a structure holds: INS promoter inh	INS promoter inh cell count	PKD1 inh	RGS16-Gao	HSV augment	HSV augment primary fold	GALR2 agonist
(10) CSc1ccc(C#N)cc1NC(=O)c1ccccc1
    .	.	-2	104	i	0.92	.
(11) Cn1c(=O)c2c(nc(CN3CCC(C(N)=O)CC3)n2Cc2c(F)cccc2Cl)n(C)c1=O
    .	.	-8	108	i	0.75	0.6
(12) Cc1c(-c2cc[n+]([O-])cc2)oc2ccc(Br)cc2c1=O
    .	.	3	101	i	1.2	.
(13) CC1=NNC(=O)/C1=C\c1cn(-c2ccccc2)nc1-c1ccc(Cl)cc1
    27	134	-3	88	i	0.6	-4.4

Further compounds
nr	Compound	INS promoter inh	INS promoter inh cell count	PKD1 inh	RGS16-Gao
17	COc1ccc(-c2nc3n(n2)C(c2cccnc2)C(C(N)=O)=C(C)N3)cc1 (stereo not drawn)	.	.	1	100
18	COC(=O)c1c(C)nn(-c2ccc(F)c(Cl)c2)c1-c1cc(C)on1	.	.	.	98
19	O=C(N/N=C/c1ccccc1Br)c1ccc(CSc2cccc3cccnc23)cc1	-30	75	3	95
20	Cc1cc(C)n(-c2ccc(C(=O)Nc3cc(S(=O)(=O)N(C)C)ccc3Cl)cc2)n1	.	.	-1	106
21	C[C@H](NC(=O)NCCc1ccccc1)C(=O)O	.	.	-20	100
22	CC(=O)Nc1ccc(S(=O)(=O)NC(CC(=O)NCCC2=CCCCC2)C(C)C)cc1 (stereo not drawn)	.	.	0	100
23	Nc1cc(-c2ccco2)no1	-33	81	-4	100
24	Cn1c(N2CCOCC2)cc(=O)n(C)c1=O	.	.	8	101

nr	HSV augment	HSV augment primary fold	GALR2 agonist
17	i	0.79	0.5
18	i	1.1	.
19	i	0.79	-3.1
20	i	1.1	-0.6
21	i	0.95	-1.1
22	i	0.97	0.3
23	i	0.89	-2.0
24	i	1.1	.

nr	Compound	INS promoter inh	INS promoter inh cell count	PKD1 inh	RGS16-Gao
25	COc1cc(NC(=O)CN2CCN(c3ccccc3F)CC2)c(C)cc1[N+](=O)[O-]	.	.	-4	133
26	O=C1NC2(CCCCCC2)C(=O)N1CCS(=O)(=O)Oc1ccccc1	.	.	-12	97
27	O=C(CNc1cccc2ccccc12)c1ccc([N+](=O)[O-])cc1	.	.	1	92
28	COC(=O)c1ccc(C(=O)OC)c(NC(=S)N2CCN(C(=O)C3CCCO3)CC2)c1 (stereo not drawn)	.	.	.	114
29	O=c1[nH]c2cc(Cl)ccc2n1-c1ccccc1	.	.	3	90
30	COc1ccc(C(=O)NCc2ccc3c(c2)OCO3)cc1S(=O)(=O)NCc1ccc(Cl)cc1	-42	129	-1	100
31	O=[N+]([O-])c1ccccc1S(=O)(=O)N1CCc2ccccc2C1	-4	88	-3	95
32	O=C(c1ccc(F)cc1)C1CCN(CCn2c(=S)[nH]c3ccccc3c2=O)CC1	.	.	.	102

nr	HSV augment	HSV augment primary fold	GALR2 agonist
25	i	1.1	-1.4
26	i	0.89	.
27	i	1	-0.5
28	i	0.99	.
29	i	0.77	-2.1
30	i	0.87	0.4
31	i	0.99	.
32	i	0.61	.

nr	Compound	INS promoter inh	INS promoter inh cell count	PKD1 inh	RGS16-Gao
33	O=C(N/N=C/c1cc(Br)ccc1O)c1ccccc1Cl	-21	95	0	88
34	CCOC(=O)c1c(-c2ccccc2)n(C)c2ccc(O)cc12	-8	104	-3	99
35	COc1ccc(Nc2nc3ccc(OC)cc3s2)cc1	11	167	-6	105
36	C/C(=N\O)C(C)/[N+]([O-])=C/c1nc(C)c(C)n1O (stereo not drawn)	4	80	-2	.
37	COc1ccccc1/C=C/C=N/NC(=O)CCn1cnc2ccccc21	.	.	.	86
38	CCC(=O)N(Cc1cc2c(C)ccc(C)c2[nH]c1=O)C1CCCCC1	-167	108	-9	99
39	O.O.O.O=S(=O)([O-])OC[C@H]1O[C@@H](O[C@]2(COS(=O)(=O)[O-])O[C@H](OS(=O)(=O)[O-])[C@@H](OS(=O)(=O)[O-])[C@@H]2OS(=O)(=O)[O-])[C@H](OS(=O)(=O)[O-])[C@@H](OS(=O)(=O)[O-])[C@@H]1OS(=O)(=O)[O-].[Al]	48	133	6	103
40	CC(=O)CSc1nnc(CN2C(=O)CSc3ccc(C(F)(F)F)cc32)n1C	.	.	.	99

nr	HSV augment	HSV augment primary fold	GALR2 agonist
33	i	0.66	0.0
34	i	0.84	-0.7
35	i	0.88	.
36	i	0.81	-2.2
37	i	0.68	.
38	i	1	0.3
39	i	0.93	0.1
40	i	1.1	.

nr	Compound	INS promoter inh	INS promoter inh cell count	PKD1 inh	RGS16-Gao
41	CCC(=O)Nc1ccccc1C(=O)OCC(=O)c1ccccc1	-23	80	-1	100
42	FC(F)(F)c1cccc(-n2c(Cn3nnc4ccccc43)n[nH]c2=S)c1	.	.	.	96
43	CCOC(=O)COc1c(C(=O)OC)sc2ncccc12	-23	42	-1	92
44	Cc1ccc(C)c(-n2c(Cc3cc(=O)[nH]c(=O)[nH]3)nnc2SC(C)C)c1	.	.	1	117
45	O=C1CN(C(=O)C2CC2)c2ccccc2N1	20	85	-1	98
46	S=c1nc(C23CC4CC(CC(C4)C2)C3)[nH][nH]1	.	.	.	94
47	Cc1csc(NC(=O)CCN2C(=O)c3ccccc3S2(=O)=O)n1	38	156	-1	99
48	COc1ccc([N+](=O)[O-])cc1NC(=O)Nc1cccc(Cl)c1	11	72	-19	124

nr	HSV augment	HSV augment primary fold	GALR2 agonist
41	i	0.74	-2.6
42	i	1.1	.
43	i	0.88	.
44	i	0.94	-1.6
45	i	1	-6.3
46	i	0.92	.
47	i	0.91	-0.8
48	i	0.79	-2.4

nr	Compound	INS promoter inh	INS promoter inh cell count	PKD1 inh	RGS16-Gao
49	CN(c1cccnc1)c1ncnc2[nH]ncc12	.	.	.	97
50	CC(=O)Nc1sc(C)c(C)c1CN1CCN(S(=O)(=O)c2ccccc2)CC1	.	.	0	106
51	COC(=O)c1oc2ccc(Br)cc2c1NC(=O)CCN1CCOCC1	40	123	-19	102
52	COc1ccccc1NC(=O)c1ccc(NC(=O)c2cc3c(s2)CCC3)cc1	.	.	6	103
53	O=C(/C=C/c1ccc(Cl)cc1)NCc1cccs1	3	98	4	100
54	Cn1c(=O)oc2cc(S(=O)(=O)NC3CCCc4ccccc43)ccc21 (stereo not drawn)	.	.	-1	106
55	COc1ccccc1-c1cn[nH]c1-c1ccc(OCc2ccc([N+](=O)[O-])cc2)cc1O	.	.	.	109
56	CN(C)c1ccc(/C=N/NC(=O)CSc2ccccn2)cc1	.	.	.	100

nr	HSV augment	HSV augment primary fold	GALR2 agonist
49	i	0.97	.
50	i	0.95	-0.5
51	i	0.86	0.1
52	i	0.97	-0.1
53	i	0.94	-1.0
54	i	0.92	-2.9
55	i	0.85	.
56	i	1.1	.

nr	Compound	INS promoter inh	INS promoter inh cell count	PKD1 inh	RGS16-Gao
57	Cc1cc(C)nc(SCc2nnc(SCC(=O)N3CCCc4ccccc43)o2)n1	-42	75	-8	105
58	CC(=O)C1=C(O)C(=O)N(Cc2cccnc2)C1c1ccc(C(C)C)cc1 (stereo not drawn)	.	.	1	74
59	O=C(CN(C(=O)Cn1nnc(-c2ccc(F)cc2)n1)c1ccc(F)c(Cl)c1)NCC1CCCO1 (stereo not drawn)	.	.	4	98
60	CCOC(=O)/C(C#N)=C/Nc1cc(OC)ccc1OC	25	61	-9	120
61	CN(Cc1ccccc1)c1nnc(N)s1	10	111	-8	82
62	COc1ccc(-c2nnc(-c3cccnc3)o2)cc1OC	.	.	4	105
63	Fc1ccc2[nH]c3c(N4CCN(C5CCCCC5)CC4)ncnc3c2c1	-22	102	2	105
64	Cc1ccccc1-c1nc(CN2CCC(C(=O)NCC3CCCO3)CC2)c(C)o1 (stereo not drawn)	.	.	10	107

nr	HSV augment	HSV augment primary fold	GALR2 agonist
57	i	1.1	0.1
58	i	1	.
59	i	1	.
60	i	1.1	-1.4
61	.	.	-1.9
62	i	1.2	-0.7
63	.	.	0.1
64	i	0.91	-2.3

nr	Compound	INS promoter inh	INS promoter inh cell count	PKD1 inh	RGS16-Gao
65	COc1ccc(S(=O)(=O)N2CCOC2CNC(=O)C(=O)NCc2ccco2)cc1 (stereo not drawn)	.	.	.	87
66	CCOc1ccc(CCNC(=O)C2CCCN(c3nnc(-n4cccc4)s3)C2)cc1OCC (stereo not drawn)	-8	93	0	101
67	Cc1ccc(-n2nnc3c(=O)n(Cc4cccc(C)c4)cnc32)cc1	.	.	-5	102
68	Cn1c(SCC(=O)NC(C)(C)C)nnc1-c1ccc(C(C)(C)C)cc1	41	99	-1	83
69	CCN1CCN(c2nc(-c3cccnc3)nc3ccccc23)CC1	-11	66	-9	106
70	O=S1(=O)N=C(SCCO)c2ccccc21	-50	77	32	100
71	CCC(C)(C)NC(=O)C(c1cccn1C)N(Cc1ccccc1)C(=O)Cn1nnc2ccccc21 (stereo not drawn)	-136	76	-10	99
72	CC(=O)n1c2c(c3ccccc31)OC(N)=C(C#N)C2c1cccc(Cl)c1Cl (stereo not drawn)	.	.	-19	102

nr	HSV augment	HSV augment primary fold	GALR2 agonist
65	i	0.93	.
66	i	1	0.3
67	i	1.1	-3.2
68	i	0.87	-1.6
69	i	0.75	-0.5
70	i	1	-0.3
71	i	0.99	-0.8
72	i	1.1	-0.5

nr	Compound	INS promoter inh	INS promoter inh cell count	PKD1 inh	RGS16-Gao
73	Brc1ccc(OCCCN2CCOCC2)cc1	10	83	-6	107
74	CCC(=O)N1CCCc2cc(S(=O)(=O)N3CCC(N4CCCCC4)CC3)ccc21	.	.	-3	110
75	Cc1ccc(OCC(=O)Nc2ccc(Cl)cc2)c(-n2nc3ccccc3n2)c1	12	111	-1	99
76	CC(=O)C(=[N+]=[N-])C(=O)NCc1ccccc1	52	66	-5	96
77	COc1ccccc1C1C(C(C)=O)=C(O)C(=O)N1CCc1ccccc1 (stereo not drawn)	-114	136	0	100
78	OCCNc1ccc(Cl)cc1	6	82	7	90
79	O=C(N/N=C/c1c[nH]c2ccccc12)c1cccs1	.	.	.	99
80	O=C(CCC(=O)N1CCc2ccccc21)N1CCc2ccccc21	i	38	2	.

nr	HSV augment	HSV augment primary fold	GALR2 agonist
73	i	1	-2.1
74	i	0.75	-1.3
75	i	0.71	-1.8
76	i	0.83	0.6
77	i	0.96	-0.1
78	i	0.94	-2.0
79	i	0.87	.
80	.	.	-1.4
